KCNQ2 inh = KCNQ2 potassium channel inhibitors, primary screen, cell-based, CHO-K1, FluxOR thallium flux, B-score (AID 2156) | O88943 | 20 min; active compounds read low; only compounds with negative scores are shown here; some inactives read as strong as hits | B-score at 10 µM | 310,000 compounds, 1.1% hits;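 active = fluorescence ratio B-score at most minus 3 library SDs, with starting brightness B-score within 2 library SDs, cut at about -5.5 in these data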
Target sequence (O88943 whole entry, looked up): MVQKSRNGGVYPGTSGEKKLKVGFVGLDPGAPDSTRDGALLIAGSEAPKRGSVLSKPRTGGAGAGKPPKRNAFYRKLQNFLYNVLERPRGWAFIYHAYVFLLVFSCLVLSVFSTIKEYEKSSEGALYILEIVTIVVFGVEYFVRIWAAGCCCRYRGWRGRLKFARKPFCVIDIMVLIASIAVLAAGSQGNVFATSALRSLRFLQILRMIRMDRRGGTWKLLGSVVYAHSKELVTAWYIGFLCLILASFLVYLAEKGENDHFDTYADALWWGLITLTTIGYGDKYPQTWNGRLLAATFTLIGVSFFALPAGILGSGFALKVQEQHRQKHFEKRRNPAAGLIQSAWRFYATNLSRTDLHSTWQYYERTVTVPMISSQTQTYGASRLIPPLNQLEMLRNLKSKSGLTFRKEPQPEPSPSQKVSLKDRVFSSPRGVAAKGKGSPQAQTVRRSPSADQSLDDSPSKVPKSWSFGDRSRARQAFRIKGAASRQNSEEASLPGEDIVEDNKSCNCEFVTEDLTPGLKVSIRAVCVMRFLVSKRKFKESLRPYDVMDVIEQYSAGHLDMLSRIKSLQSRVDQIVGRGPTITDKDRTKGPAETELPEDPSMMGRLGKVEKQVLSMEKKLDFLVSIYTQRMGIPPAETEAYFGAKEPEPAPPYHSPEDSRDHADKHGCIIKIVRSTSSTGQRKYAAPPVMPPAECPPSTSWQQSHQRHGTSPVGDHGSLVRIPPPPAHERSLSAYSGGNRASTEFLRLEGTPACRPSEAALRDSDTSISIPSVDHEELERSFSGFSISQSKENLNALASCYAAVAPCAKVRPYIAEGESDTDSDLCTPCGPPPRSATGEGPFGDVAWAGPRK
KCNQ2 inh baseline = also measured in KCNQ2 inh; calls as there; B-score; measured here: initial fluorescence intensity artifact check;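 brightness before thallium and not channel activity; 0 = typical well and far values either way flag optical interference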
* hit, by the source's call; i = inactive. A portion of the library; count on the stated rates, not on these rows.

smiles | KCNQ2 inh | KCNQ2 inh baseline
COc1cc(C=O)ccc1OCC(=O)Nc1ccccc1N1CCOCC1 | i | -0.53
CCc1nnc(NC(=O)c2ccc3ccccc3n2)s1 | i | 2.21
CCN(C(=O)c1cccc(NC(=O)c2ccccc2)c1)C1CCCCC1 | i | -0.67
COC(=O)c1ccc2c(c1)C(C)(C)C(/C=C/c1ccccc1O)=[N+]2C | i | 5.67
CC(C)c1ccc(C(N)=S)cc1 | i | -0.57
COc1ccc(CNC(=O)COC(=O)/C=C/c2ccc(S(=O)(=O)N3CCOCC3)cc2)cc1 | i | 0.13
Cc1noc(C)c1CSCc1ccc(Cl)cc1 | i | 1.38
COc1ccccc1NC(=O)Nc1nnc(C(C)c2ccccc2)s1 (configuration not stated) | i | 0.52
CC(=O)Nc1ccc(NC(=O)CSc2nc3[nH]ncc3c(=O)n2-c2ccccc2)cc1 | i | 0.16
CCOC(=O)CSc1nc(Cc2ccccc2)nc2ccccc12 | i | 0.26
COc1ccc(NC(=S)NCCc2ccccc2OC)c(OC)c1 | i | -1.13
N=c1c(C(=O)NCC2CCCO2)cc2c(=O)n3ccccc3nc2n1C1CCCCC1 (configuration not stated) | i | 1.79
O=C(c1cc(COc2ccc(F)c(F)c2)on1)N1CCN(C/C=C/c2ccccc2)CC1 | i | -0.79
CC(C)(C)C(=O)OCc1nc(-c2ccc(O)c(O)c2)cs1 | i | 0.67
CC(C)C(NC(=O)c1cccs1)c1nnc(SCC(=O)Nc2nccs2)n1C (configuration not stated) | i | 0.39
CCOc1ccc(NS(=O)(=O)c2ccc(C(=O)NCC(c3ccc(OC)cc3)N3CCOCC3)cc2)cc1 (configuration not stated) | i | -0.52
Cc1nc(NC(=O)CN2CCOCC2)sc1-c1ccccc1 | i | 1.41
O=C(c1cnn2c(C(F)(F)F)cc(-c3ccccc3)nc12)N1CCCc2ccccc21 | i | 1.68
O=C(COC(=O)C(c1ccccc1)c1ccccc1)NCc1ccco1 | i | 0.13
Cc1cccc(CCNC(=O)c2cc(S(=O)(=O)N3CCCCC3)c[nH]2)c1 | i | -0.34
O=C(NC1CCCCC1)C(c1c(F)cccc1Cl)N(C(=O)c1csnn1)C1CC1 (configuration not stated) | i | -0.08
COc1ccc(OC)c2c(C)cc(C)nc12 | i | -2.38
COc1ccccc1-c1cc2ccccc2[nH]1 | i | -0.39
CCn1c(=O)c2c(nc(SCC(=O)Nc3ccccc3)n2C)n(C)c1=O | i | -1.11
Cc1nn(C)c(C)c1CNC(=O)Nc1cccc(Cl)c1C | i | -1.8
COc1cc2c(C(=O)OCCN(C)C)c(CSc3ccccc3)n(C)c2cc1Br | i | 3.24
CCNc1ccc(Br)cc(C(=O)/C=C/c2ccc(Cl)cc2Cl)c1=O | -5.82* | 1.07*
COCCNC(=O)/C(C#N)=C/c1ccc(OCc2ccccc2)cc1 | i | 0.32
CN(c1ccccc1)S(=O)(=O)c1ccc(NC(=S)Nc2ccccc2)cc1 | i | 0.57
CC(=O)Nc1ccc(CN2CCc3c([nH]c4ccccc34)C2C(C)(C)C)cc1 (configuration not stated) | i | -1.78
O=C(Nc1cccc(C(F)(F)F)c1)/C(=C\c1ccco1)NC(=O)c1cccs1 | i | 0.23
O=C1C(Cl)=C(N2CCCC2)C(=O)N1c1ccccc1F | i | 1.54
CC[N+](CC)(CC)CC(=O)Nc1c(C)cccc1C | i | -0.71
COC(=O)c1ccc(COn2nnc3ccccc32)cc1 | i | -0.17
CCOC(=O)c1c(-c2ccco2)csc1NC(=O)COC(=O)c1cnccn1 | i | -1.55
O=C(CCCOc1ccccc1)N1CCN(S(=O)(=O)c2cccc(F)c2)CC1 | i | 1.89
CC(Nc1ccc(Cl)cc1)C(=O)NN (configuration not stated) | i | -0.01
CCn1c(COc2cccc(C)c2)nc2ccccc21 | i | 0.13
Cc1ccc(/C=N/NC(=O)C(c2ccncc2)N2CCOCC2)cc1 (configuration not stated) | i | -0.2
O=C(Cc1ccccc1)NCCn1ccc2ccccc21 | i | -1.24
COCCCNC(=O)Cn1nnc(-c2ccccc2NC(=O)c2ccc(F)cc2)n1 | i | 0.78
COc1ccc(CC2(CO)CCN(C/C=C/c3ccccc3OC)CC2)cc1 | i | -0.63
COc1cccc(-n2c(C)nc3cc(C(=O)O)ccc32)c1 | i | -0.35
COc1cc(O)c(C(=O)/C=C/c2ccccc2)c(OC)c1 | i | 1.68
COc1ccc(OC)c(/C=N/N=C2\SCC(=O)N2Cc2ccco2)c1 | i | -1.72
COc1ccc(OC)c(-c2cc(C(=O)N3CCOCC3)no2)c1 | i | -0.9
COC(=O)c1ccc(NC(=O)C(=O)N2CCN(C(=S)Nc3ccc(OC)cc3)CC2)cc1 | i | 0.39
CC(C)c1ccc(N(CC(=O)NCCSC(C)(C)C)S(C)(=O)=O)cc1 | i | 0.01

A stretch taken from the entries so far, for reference:
smiles | KCNQ2 inh | KCNQ2 inh baseline
COCCCNC(=O)Cn1nnc(-c2ccccc2NC(=O)c2ccc(F)cc2)n1 | i | 0.78
COc1ccc(CC2(CO)CCN(C/C=C/c3ccccc3OC)CC2)cc1 | i | -0.63
COc1cccc(-n2c(C)nc3cc(C(=O)O)ccc32)c1 | i | -0.35

(cont.)
smiles | KCNQ2 inh | KCNQ2 inh baseline
CCOc1ccc(S(=O)(=O)N2CCCC(C(=O)N3CCCC3)C2)cc1 (configuration not stated) | i | 0.2
COc1ccc(OC)c(C(c2nnnn2C2CCCC2)N2CCN(c3ccc(F)cc3)CC2)c1 (configuration not stated) | i | -1.93
COc1ccc(C(=O)Cc2cc3cccc(OC)c3oc2=O)cc1 | i | 0.02
Cc1ccccc1N1CCN(Cc2nc(Cc3ccccc3)no2)CC1 | i | -0.12
Cc1ccc(S(=O)(=O)NCc2ccc(C(=O)NCCCN3CCC(Cc4ccccc4)CC3)cc2)cc1 | i | -0.66
COc1ccc(-c2nc3n(c2Br)CCC3)cc1 | i | 0.83
CCOC(=O)c1sc(NC(=O)CSc2nncn2C)nc1C | i | -0.24
CCOc1cc(-c2nc(-c3ccncc3)no2)cc(OCC)c1OCC | i | 0.11

(further entries)
Every second line gives: KCNQ2 inh | KCNQ2 inh baseline
CCn1ncc(CNC(=O)CCSc2nc(-c3ccco3)cc(C(F)(F)F)n2)c1C
 : i | -1.05
O=C(NCCO)c1cc2ccccc2cc1O
 : i | 1.92
O=C(Nc1ccccc1)[C@@H]1CC=C[C@@H]2CCN(Cc3ccc(Cl)c(Cl)c3)C(=O)[C@@H]21
 : i | 0.85
Cc1sc2ncnc(Sc3ccccc3C(=O)Nc3ccc(C#N)cc3)c2c1C
 : i | -0.04
CCS(=O)(=O)N1CCC(N2CCN(c3ccccc3)CC2)CC1
 : i | -0.1
[N-]=[N+]=CC(=O)CC(c1ccccc1)N1C(=O)c2ccccc2C1=O (configuration not stated)
 : i | 0.19
COc1ccc(CCC(=O)NCc2cn3ccsc3n2)cc1
 : i | -0.31
CC(c1ccco1)N(C(=O)C12CC3(C)CC(C)(CC(C)(C3)C1)C2)c1ccccn1 (configuration not stated)
 : -6.27* | 1.09*
COc1ccc(NC(=S)/N=C(\N)Nc2nc(C)c3ccccc3n2)cc1
 : i | -1.32
Cc1nnc(SCC(=O)NNC(=O)C(C)C)[nH]c1=O
 : i | 1.54
O=C(Nc1ccc(N2CCN(C(=O)c3ccccc3)CC2)c(Cl)c1)c1ccc(Br)o1
 : i | -0.01
CC1CC2(CCCC2)N(C(=O)c2ccccc2)Cc2ccccc21 (configuration not stated)
 : i | 0.27
CCOC(=O)COc1c(/C=N\O)cc(Cl)cc1OC
 : i | 0.23
Cc1c(Cl)cccc1NC(=O)NCCCN1CCCC1=O
 : i | -0.38
CCOC(=O)N1CCC(Nc2ccc3nnc(-c4ccccc4)n3n2)CC1
 : i | -0.56
Cc1c(NC(=O)C(C)OC(=O)c2ccc(NC(=O)CC#N)cc2)c(=O)n(-c2ccccc2)n1C (configuration not stated)
 : i | 0.67
CCOC(=O)c1cn(-c2ccccc2)nc1-c1ccncc1
 : i | 0.59
O=C(NC(=S)Nc1ccc(N2CCOCC2)cc1)c1cccc([N+](=O)[O-])c1
 : i | 2.65
CN1CCC(=C2c3ccccc3C=Cc3ccccc32)CC1
 : i | -0.14
O=C(NNc1nc2cc3c(cc2s1)OCO3)c1ccc(F)cc1
 : i | 1.15
CCc1cccc(C)c1NC(=O)CSc1nnc(CCCOc2ccc(Cl)cc2Cl)n1C
 : i | -0.78
CCN(Cc1ccccc1)S(=O)(=O)c1ccc(C(=O)N(CCCN(C)C)c2nc3ccc(F)cc3s2)cc1
 : i | -0.09
COCCN(C(=O)COC(=O)Cc1c[nH]c2ccccc12)c1c(N)n(Cc2ccccc2)c(=O)[nH]c1=O
 : i | -1.36
O=Cc1cn(-c2ccccc2)nc1-c1cc2cc(O)ccc2oc1=O
 : i | -0.04
Cc1nc(Cl)sc1C(=O)Nc1ccc(C(C)(C)C)cc1
 : i | 0.71
COc1ccccc1Nc1nc(N2CCOCC2)nc(N2CCOCC2)n1
 : i | -0.33
Cc1ccc(SCC(=O)OCC(=O)NCCCc2ccccc2)cc1
 : i | -0.98
Cc1cc(C)c2oc(C(=O)NCc3ccccc3)cc(=O)c2c1
 : i | 0.65
COc1ccc(NC(=O)CSc2nnc(-c3cccnc3)n2Cc2ccco2)c(OC)c1
 : i | 0.18
Cc1cc(C)cc(NC(=O)CS(=O)(=O)c2cccc3nsnc23)c1
 : i | -2.32
C=C(C)CN1C(=O)c2ccccc2C1=O
 : i | 3.23
CC1(C)CC(=O)C=C(NCCN2CCNCC2)C1
 : i | -0.39
CNc1oc(-c2ccc(Cl)cc2)nc1P(=O)(c1ccccc1)c1ccccc1
 : i | 0.52
O=C(c1cccc2cccc(O)c12)N1CCCCC1
 : i | -0.78
Cc1ccc(S(=O)(=O)Nc2ccc3c(c2)nc(CCN2CCCC2)n3C)cc1
 : i | -0.26
NNc1ccc2nncn2n1
 : i | -1.24
O=C(CSc1ncn[nH]1)Nc1ccccc1Sc1ccccc1
 : i | -0.38
Cc1ccc(S(=O)(=O)NNC(=O)c2cnn(-c3ccccc3)c2-n2cccc2)cc1
 : i | -1.07
Oc1[nH]c2ccccc2c1N=Nc1ccccc1
 : i | 0.55
Cc1ccc2nc(SCC(=O)NCc3ccc4c(c3)OCO4)nc(=O)n2c1
 : i | -0.44
CCC1Oc2ccc(C)cc2N(CC(=O)N(Cc2cccnc2)Cc2ccc(C)o2)C1=O (configuration not stated)
 : i | 0.73
O=C(O)CC/C(=N\NC(=O)c1ccncc1)c1ccccc1
 : i | -1.1
O=c1cc(O)c2sc(Nc3ccc(F)cc3)nc2[nH]1
 : i | 1.38
CNC(=O)Nc1nnc(C(C)(C)C)s1
 : i | 0.24
CCN(CC)CC(=O)Nc1ccc([N+](=O)[O-])cc1
 : i | 0.66

By substructure, those above with bromine.
Every second line gives: KCNQ2 inh | KCNQ2 inh baseline
COc1cc2c(C(=O)OCCN(C)C)c(CSc3ccccc3)n(C)c2cc1Br
 : i | 3.24
CCNc1ccc(Br)cc(C(=O)/C=C/c2ccc(Cl)cc2Cl)c1=O
 : -5.82* | 1.07*
COc1ccc(-c2nc3n(c2Br)CCC3)cc1
 : i | 0.83
O=C(Nc1ccc(N2CCN(C(=O)c3ccccc3)CC2)c(Cl)c1)c1ccc(Br)o1
 : i | -0.01

Two compounds drawn at random from those above:
Every second line gives: KCNQ2 inh | KCNQ2 inh baseline
COCCCNC(=O)Cn1nnc(-c2ccccc2NC(=O)c2ccc(F)cc2)n1
 : i | 0.78
COc1ccc(OC)c(-c2cc(C(=O)N3CCOCC3)no2)c1
 : i | -0.9

New compounds follow.
Every second line gives: KCNQ2 inh | KCNQ2 inh baseline
CC(C)C(=O)Nc1ccc(-c2csc(-c3ccccc3)n2)cc1
 : i | -1.49
COc1ccc(CN2C(=O)c3cccc4cccc2c34)cc1F
 : i | -1.65
COc1ccc(S(=O)(=O)N/N=C(/C)c2ccncc2)c(OC)c1
 : i | -1.95
FC(F)(F)c1nc2ccccc2nc1N/N=C/c1c(Cl)cccc1Cl
 : i | 0.6
COCCCNC(=O)Cn1c(=O)n(CCCCCC(=O)NCc2ccc3c(c2)OCO3)c(=O)c2sccc21
 : i | -0.54
CCOc1ccc(N(CC(=O)N2CCN(c3ccccc3OC)CC2)S(=O)(=O)c2ccc(F)cc2)cc1
 : i | -0.1
CCCCOCCCNC(=O)CN1C(=O)c2ccccc2C1=O
 : i | 1.76
Nc1ccn([C@@H]2O[C@H](CO)[C@@H](O)[C@@H]2O)c(=O)n1
 : i | 0.02
CC(C)OC(=O)Cn1cc(C#N)c2ccccc21
 : i | -0.02
Cc1ccc(S(=O)(=O)Cc2ccc(C(=O)N3CCC(C(N)=O)CC3)o2)cc1
 : i | 3.28
CCOC(=O)C1C(C(=O)NN)C1C(=O)Nc1ccccc1 (configuration not stated)
 : i | -0.02
Cc1ccc(Nc2nc(-c3ccc(S(=O)(=O)N4CCOCC4)cc3)cs2)cc1
 : i | -0.01
Cc1ccc(N2C(=O)C3C4C=CC(CC4)C3C2=O)cc1Cl (configuration not stated)
 : i | 0.29
CN(c1ccccc1)S(=O)(=O)c1ccc(NC(=O)c2ccccc2)cc1
 : i | 0.7
CC1(C)CC(NC(=O)Cc2ccccc2)CC(C)(C)N1
 : i | -0.72
CCCCCC(=O)N1CC2(C)CN(C(=O)CCCCC)CC(C)(C1)C2=O
 : i | 1.76
COc1ccc(CCNC(=O)c2nc3ncccn3n2)cc1OC
 : i | 1.13
CCCn1c(N)c(Sc2ccccc2)c(=O)n(CCC)c1=O
 : i | -0.49
CSc1ncccc1C(=O)N(C)CC(=O)Nc1ccc(Cl)cc1
 : i | -0.32
CCN(CC(=O)Nc1ccc(NC(C)=O)cc1)C(=O)CN1C(=O)NC2(CCCC2)C1=O
 : i | -1.25
CC(OC(=O)c1cc2ccccc2cc1O)C(=O)Nc1ccc(S(N)(=O)=O)cc1 (configuration not stated)
 : i | 1.85
Cc1ccc(/C=C2\SC(=S)N(CCC(=O)Nc3ccc(O)cc3)C2=O)cc1
 : i | 1.23
